# CapD inh – blocks the Bacillus anthracis CapD enzyme | purified CapD enzyme, fluorescence intensity read-out; stronger effect = lower value; some hits fall short of the stated cut | z-score (concentration not given with the values) | actives 0.23% (n = 140,000) | AID 492967;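 active means z-score under -4 in either of two replicates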;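 further: stock transfer was 100 nL into about 40 µL; score is relative to mean and spread of the plate; one replicate is shown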
# AID504770 – growth inhibitors of E. coli YBA685 in a screen for V. cholerae RctB (chromosome II replication) inhibitors | actives 0.27% (n = 130,000) | AID 504770 | z-score (test concentration not listed) | E. coli YBA685 rctB-dependent plasmid, OD600 growth, 3 h; stronger effect = lower value;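 active means z-score under -2 on both plates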;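 further: wells of about 30 µL received 100 nL stock; score is relative to mean and SD of the test wells; the first replicate is given; strong numbers were not always called active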
# Active calls of the source: *; · = no result given; & = joins results of further samples.
SMILES,CapD inh,AID504770
COc1ccc(OC)c(C2C=C(Nc3ccccc3)C(=O)N2c2ccccc2)c1 (configuration not stated),-0.28,·
O=C(COC(=O)C(Cc1ccccc1)N1C(=O)c2ccccc2C1=O)Nc1ccc2[nH]c(=O)[nH]c2c1 (configuration not stated),·,1.7
Cc1cc(C)cc(-n2ncc3c(OCC(=O)N4CCCCC4)ncnc32)c1,·,-0.6
Cc1ccccc1N(Cc1nnc2n1CCCCC2)C(=O)Nc1ccc(F)cc1,·,-0.95
CCOC(=O)c1c(NC(=O)c2ccc(Cl)c([N+](=O)[O-])c2)sc(C(=O)Nc2ccc(C)c(Cl)c2)c1C,-0.14,·
CCC1(CC)C(=O)NC(=NCc2ccc(OC)cc2)N(C)C1=O,·,0.7
O=C(NCCN1CCCc2ccccc21)Nc1cccc2c1CCCC2,0.64,1.1
COc1ccc(C(=O)OCC(N)=O)cc1,-0.68,-0.7
CC(C)(C)C(=O)Nc1ccc(Br)cc1,0.7,-0.05
O=C(NCc1ccc(-n2cccn2)cc1)c1cc(F)cc2c1OCOC2,0.73,-0.35
COc1ccc2c(c1)c(=O)c1ccoc1n2C,88,-0.8
CCc1ccc(C2CC(=O)NC(NC(=O)c3ccccc3)=N2)cc1 (configuration not stated),-0.15,0
CC(C)(C)C(=O)N(Cc1ccc(Cl)cc1)Cc1cccnc1,0.87,-0.1
COc1cc(-c2ccc(N=Nc3ccc4c(S(=O)(=O)O)cc(S(=O)(=O)O)c(N)c4c3O)c(OC)c2)ccc1N=Nc1ccc2c(S(=O)(=O)O)cc(S(=O)(=O)O)c(N)c2c1O,-0.14,·
COc1cc(C2NC(=O)NC(C)=C2C(=O)OC2CCCCC2)cc(Br)c1O (configuration not stated),-0.055,·
CCc1c(O)nc2sc3cc(OC)ccc3n2c1=O,1.2,0.3
CCOC(=O)c1cnn(C(=O)c2c(C)nc3ccccn23)c1N,2.5,0.2
CNCC(=O)N1CCOCC1,·,0.35
COCCN(Cc1ccc(C)c(Br)c1)S(=O)(=O)c1c[nH]c(C(=O)OC)c1,-1.3,-0.55
O=C(NNC(=O)c1ccccc1OC(F)(F)F)c1ccco1,0.13,·
CC(C)(C)N1CC(OC(=O)CCC(=O)O)C1,0.055,0.35
Cc1ccc(-c2nc(-c3ccccc3)no2)cc1,3.4,-0.65
c1ccc(-c2nnc(OCC3CCCO3)c3ccccc23)cc1 (configuration not stated),-0.33,-0.3
COc1cccc(OC(=O)c2ccc(Cl)cc2Cl)c1,0.15,0.3
O=C(CCC(=O)c1ccccc1)NCCCN1CCOCC1,-0.3,·

# Rewritten as tab-separated lines: entries from further up.
structure	CapD inh	AID504770
CCC1(CC)C(=O)NC(=NCc2ccc(OC)cc2)N(C)C1=O	·	0.7
O=C(NCCN1CCCc2ccccc21)Nc1cccc2c1CCCC2	0.64	1.1
COc1ccc(C(=O)OCC(N)=O)cc1	-0.68	-0.7

# Next results
SMILES,CapD inh,AID504770
O=C(CSc1nc2ccccc2s1)OCc1nnc(-c2ccccc2)o1,·,0.75
CC1(C)C2CC=C(/C=N/NC(=O)C3CC3)C1C2 (configuration not stated),·,0.4
Cc1ccc(NC(=S)N2CCN(CCO)CC2)c(C)c1,-0.02,-0.2
O=C(Nc1ccc(Cl)cc1)c1cc(Cl)c(=O)n(Cc2ccccc2)c1,0.65,·
Cc1ccc(-c2ccccc2NC(=O)CSc2nnc3c(n2)-c2cccc4cccc-3c24)o1,-0.065,·
Cc1ccc(Oc2ncccc2NC(=O)CN2CCC(NC(=O)c3ccccc3)CC2)c2c1CCC2,-0.085,-0.45
N#Cc1ccc[nH]c1=S,·,-0.75
Cc1cc(C)cc(C(=O)N(C)CC(=O)Nc2ccc(F)cc2)c1,·,-1.2
O=c1c2ccccc2n2c(-c3ccsc3)nnc2n1Cc1ccccc1,0.015,-0.35
CCCC(=O)NCc1ccccc1Cl,0.24,-0.85
CCOC(=O)C1=C(c2ccccc2)NC(=S)NC1c1cccc(OC)c1O (configuration not stated),-1.3,-0.45
CCn1cc(C(=O)NCC(C)C)c(=O)c2cc(F)c(N3CCN(C(=O)c4ccco4)CC3)cc21,·,-0.3
Cc1ncc(CC(=O)O)s1,·,1.1
Cc1c(Cc2ccccc2)c(=O)oc2cc(O)ccc12,113,·
COc1ccc(C(C(=O)Nc2ccc(C(C)C)cc2)N(Cc2ccco2)C(=O)CC2NC(=O)NC2=O)cc1 (configuration not stated),0.18,-0.4
CCCCSc1ncnc2c1cnn2-c1ccc(Cl)cc1,·,-0.85
NC(=O)/C=C1\NC(=O)CS1,0.45,0.65
CC(NC(=O)C(CC(N)=O)NC(=O)OC(C)(C)C)C(=O)NC1CCN(c2nc3c(cc2F)c(=O)c(C(=O)O)cn3-c2ccc(F)cc2F)C1 (configuration not stated),46,·
N#Cc1c(Cl)cccc1Oc1ccc(-c2ccnc(N)n2)cc1,7.9,·
COCCOC(=O)C1=C(N)OC(C)=C(C(=O)OC(C)C)C12C(=O)Nc1ccccc12 (configuration not stated),0.51,·
CCCN1C(=O)CC(=O)N=C1SCC(=O)Nc1ccccc1F,·,-0.15
COc1ccc(-c2[nH]nc3c2C2(C(=O)Nc4ccccc42)C(C#N)=C(N)O3)cc1OC (configuration not stated),-0.36,·
COc1ccc(/C=C2\CCC/C(=C\C=N\N(C)C)C2=O)cc1,·,1.1
Cc1ccc2c(c1)c1c3n2CCNC3CCC1 (configuration not stated),0.15&0.9,·
CCn1c2ccccc2c2n[nH]c(=S)nc21,-0.13,-0.25

# Whole records, looked up by structure:
# Entry for CC(NC(=O)C(CC(N)=O)NC(=O)OC(C)(C)C)C(=O)NC1CCN(c2nc3c(cc2F)c(=O)c(C(=O)O)cn3-c2ccc(F)cc2F)C1 (configuration not stated) : CapD inh = 46; AID504770 = ·
# Entry for COCCOC(=O)C1=C(N)OC(C)=C(C(=O)OC(C)C)C12C(=O)Nc1ccccc12 (configuration not stated) : CapD inh = 0.51; AID504770 = ·

# Of the compounds above, these contain a COOH group.
SMILES,CapD inh,AID504770
CC(C)(C)N1CC(OC(=O)CCC(=O)O)C1,0.055,0.35
Cc1ncc(CC(=O)O)s1,·,1.1
CC(NC(=O)C(CC(N)=O)NC(=O)OC(C)(C)C)C(=O)NC1CCN(c2nc3c(cc2F)c(=O)c(C(=O)O)cn3-c2ccc(F)cc2F)C1 (configuration not stated),46,·

# Remaining list, next part:
SMILES,CapD inh,AID504770
Cc1csc(SCC(=O)Nc2ccc(N3CCCCC3)cc2)n1,·,-0.2
COc1cc(Cl)c(C)cc1-n1ccnc(NCCCOC(C)C)c1=O,6.4,0.75
COc1cccc(C(=O)N2CCN(C3CCC(c4ccccc4)CC3)CC2)c1OC (configuration not stated),·,0
O=C(OCCN1CCCCC1)c1cc2ccccc2o1,·,-1.2
Cn1c(=O)c2c(nc(CN3CCN(c4ccccc4)CC3)n2Cc2c(F)cccc2Cl)n(C)c1=O,0.32,-0.3
CS(=O)(=O)N1Cc2ccccc2CC1C(=O)O (configuration not stated),·,-1.2
Cc1nc2ccccc2c(=O)n1-c1ccc(NS(C)(=O)=O)cc1,·,0.2
CCN(CC1COc2ccccc2O1)Cn1c(=O)oc2ccccc21 (configuration not stated),·,-0.2
CSC(N)=Nc1ccccc1,-0.41,·
COc1ccc(-c2c/c(=N\O)c3cc(F)ccc3o2)cc1,54,0.15
COc1cccc(C(=O)N(c2ccccn2)c2ccccn2)c1,0.1,-0.45
COc1cc2c(cc1OC)CN(C(=O)Cc1cccs1)CC2,·,-0.1
CC(C)(C)C1CCc2oc3c(cc(NS(=O)(=O)c4ccccc4)c4ccccc43)c2C1 (configuration not stated),-0.46,·
O=S(=O)(Oc1cc(Cl)cc(Cl)c1)c1cccc2nsnc12,-0.19,·
FC(F)(F)c1ccc2nccnc2c1,1.3,·
CCOC(=O)c1c(NC(=O)C23CC4CC(CC(C4)C2)C3)sc(C(=O)Nc2ccc(C)c(Cl)c2)c1C,-0.33,·
CC(C(=O)NC1CCCC1)n1c2ccccc2c2cn[nH]c(=O)c21 (configuration not stated),19,0.15
O=C(Nc1ccc(Cl)cc1)NC1Cc2ccccc2C1,-0.1,·
O=C(OCC(=O)N1CCC(Cc2ccccc2)CC1)C1CCC1,-0.21,-0.65
CN(C(=O)c1ccc(=O)n(Cc2ccc(Cl)cc2)c1)c1ccccc1,-1.1,·
CCn1c(C(=O)N2CCCC2)cc2sc(Cl)cc21,-0.22,1.1
Cc1ccc(SCC(=O)NC2(C#N)CCCCC2)c(C)c1,·,1.4
Cc1cc(F)ccc1NCC(=O)Nc1ccc(C#N)cc1,·,0.4
COc1cccc(N2C(=O)NC(=O)/C(=C\c3ccc(OC)c(Br)c3)C2=O)c1,0.085,·
Cc1nc(C(=O)Nc2ccc(F)cc2)nn1-c1cc(Cl)ccc1Cl,-0.23,·

# Next part
SMILES,CapD inh,AID504770
CCOc1ccccc1NC(=O)CN1C(=O)CSC(C)C1=O (configuration not stated),0.055,-0.55
CCCCn1c(CCC(=O)O)nc2cc(S(=O)(=O)N(C)C)ccc21,·,0.45
CCOC(=O)c1c(NC(=O)Cc2ccccc2)sc(C(=O)Nc2cc(C(F)(F)F)ccc2Cl)c1C,0.69,·
CCCS(=O)(=O)/C(C#N)=C/c1ccc(-c2ccc(OC)cc2)s1,0.81,0.1
Cc1cc(=O)nc2c3ccccc3n(C(C)C(=O)N(C)Cc3ccccc3)n12 (configuration not stated),1.5,-0.25
N/C(=N\OC(=O)COc1ccc(Cl)cc1Cl)c1ccncc1,-0.49,-0.75
Cc1cccc(OCc2nnc(SCc3cc(=O)oc4ccc5ccccc5c34)o2)c1,·,-0.1
CCc1cccc(CC)c1NC(=O)C(F)(F)Oc1ccc(Cl)cc1C,0.18,·
CCOC(=O)/C(C#N)=C1\NC(CO)C(c2ccccc2)O1 (configuration not stated),-0.56,-0.15
CCCCN(CC)S(=O)(=O)c1ccc2[nH]c(=O)cc(C(=O)NCCc3ccc(Cl)cc3)c2c1,0.035,-0.5
COCCCN=C(c1ccco1)n1c(=S)nc(-c2ccco2)n(CCCOC)c1=S,·,-0.3
COc1ccc(C2=NN(C(=O)c3cc(OC)c(OC)c(OC)c3)C(c3ccc(OC)c(OC)c3)C2)cc1OC (configuration not stated),-0.36,·
CCC1(CC)C(=O)N(C)C(=O)NC1=Nc1ccccc1,·,-0.45
Oc1ccc2c(c1)OCCO2,·,-0.15
COc1ccc2c(c1)-c1nc(C)sc1CC2,0.26,0.1
COc1ccc(C2=CC(c3ccc(C)o3)n3nnnc3N2)cc1OC (configuration not stated),·,-0.2
Cc1cc(=O)n(Cc2ccccc2Cl)c(O)c1C#N,·,-0.4
CC1(NC(=O)c2cn(-c3ccccc3)nc2-c2cccnc2)CCS(=O)(=O)C1 (configuration not stated),·,-0.85
O=C1CCSc2c1cccc2C(=O)NCc1ccccc1,-0.29,2.2
CCCCN1C(=O)c2ccc(Br)cc2C1=O,·,0.1
CC1C=CCC2C(=O)N(c3cccc(C(=O)OCC(=O)c4ccc(Cl)cc4)c3)C(=O)C12 (configuration not stated),0.025,·
O=C(NCc1ccco1)C(c1ccccc1)N(Cc1ccco1)C(=O)Cn1nnc2ccccc21 (configuration not stated),·,-0.5
C(=N\n1cnnc1)/C1CCCCC1,-0.66,-0.25
CCCCC(NC(C)=O)C(=O)O (configuration not stated),0.37,·
CC1CN(c2ccc([N+](=O)[O-])c(O)c2)CC(C)O1 (configuration not stated),-1.4,·

# Going on with the list:
SMILES,CapD inh,AID504770
COC(=O)c1cn(C(=O)COc2ccccc2Cl)c2ccccc12,0.34,1.2
Cc1ccc2c3c(ccc2n1)NC1=C(C(=O)CCC1)C3C1CC=CCC1 (configuration not stated),11,-0.75
O=C(NC1CCN(Cc2ccccc2Sc2ccc(Cl)cc2)C1)N(Cc1ccco1)Cc1ccccc1OCc1ccccc1 (configuration not stated),0.085,·
CN(C(=O)COC(=O)C12CC3CC(CC(C3)C1)C2)C1CCS(=O)(=O)C1 (configuration not stated),·,-0.3
O=C1/C(=C/c2ccc(-c3cc(Cl)ccc3Cl)o2)C=C(c2ccccc2)N1c1cccc([N+](=O)[O-])c1,-0.14,·
C=CCN1C(=O)/C(=C2/SC(C)=C(C)N2CC)SC1=S,0.23,·
Nc1ccc(OCC2CCCO2)cc1 (configuration not stated),·,-0.55
O=C(Cc1ccccc1)N1CCNCC1,0.38,·
COc1cc(/C=C2/SC(=Nc3ccccc3Cl)NC2=O)cc(OC)c1,-0.07,·
COC(=O)C(C)Sc1nnc(-c2c[nH]c3ccccc23)n1-c1ccc(OC)cc1 (configuration not stated),-0.29,-0.35
COc1cc(C2C(C(=O)Nc3ccccc3)=C(C)Nc3nnnn32)ccc1OC(=O)c1ccccc1 (configuration not stated),-0.32,·
c1ccc(C2=NNC(c3ccccc3)=NN2)cc1,-0.21,0.9
CCOC(=O)CN1CC23C=CC(O2)C(C(=O)O)C3C1=O (configuration not stated),-0.27,-0.9
Cc1c(O)nc(SC2CC(=O)N(c3ccccc3)C2=O)[nH]c1=O (configuration not stated),0.6,-0.5
COc1ccc(-c2cc(C(=O)N3CCN(C(c4ccccc4)c4ccccc4)CC3)no2)cc1,0.66,-0.2

# Arranged by number of heavy atoms (low to high): six of the compounds above
SMILES,CapD inh,AID504770
O=C(Cc1ccccc1)N1CCNCC1,0.38,·
CCOC(=O)CN1CC23C=CC(O2)C(C(=O)O)C3C1=O (configuration not stated),-0.27,-0.9
COC(=O)c1cn(C(=O)COc2ccccc2Cl)c2ccccc12,0.34,1.2
CN(C(=O)COC(=O)C12CC3CC(CC(C3)C1)C2)C1CCS(=O)(=O)C1 (configuration not stated),·,-0.3
COC(=O)C(C)Sc1nnc(-c2c[nH]c3ccccc23)n1-c1ccc(OC)cc1 (configuration not stated),-0.29,-0.35
COc1ccc(-c2cc(C(=O)N3CCN(C(c4ccccc4)c4ccccc4)CC3)no2)cc1,0.66,-0.2

# Source: PubChem
